NPYLR7 ag: agonists of mosquito NPYLR7 receptor, primary screen, cell-based, Aedes aegypti, calcium fluorescence, mosquito biting behavior; activation, % at 10 µM; HEK293T NPYLR7/Galpha15, GCaMP6s calcium fluorescence; 270,000 compounds, 0.15% hits; Aedes aegypti neuropeptide Y-like receptor 7 (NPYLR7); in the data active means activation above about 40%;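 further: 0% = vehicle and 100% = reference agonist at the receptor; some compounds past the cut are filed as inactive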
NPYLR7 ag max-min: recorded beside NPYLR7 ag, whose call it bears; activation, %; measured here: Max-Min RFU normalised activation; some inactives read as strong as hits;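 span of the calcium signal over five minutes; 0% = vehicle and 100% = native peptide agonist; compound fluorescence can raise it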
Starred values were filed as active, the others as inactive.

molecule | NPYLR7 ag | NPYLR7 ag max-min
Cc1nc2sc(C(=O)OCC(=O)NC(C)C(C)C)c(C)c2c(=O)[nH]1 (stereo unspecified) | 1.5 | 7.3
COc1ccc(CN2CCC(C(=O)NC(C)c3ccc(OC)c(OC)c3)CC2)cc1 (stereo unspecified) | 7.8 | 6.0
CCOC(=O)C1CCCN(C(=O)c2cnn(-c3ccccc3C)c2C)C1 (stereo unspecified) | -9.9 | -3.1
O=C(NCCn1ncc2c(N3CCCC3)ncnc21)c1cccs1 | 1.0 | 0.0
Cn1ccnc1C(NC(=O)CC1CCCC1)c1ccc(Cl)cc1 (stereo unspecified) | 1.7 | 1.0
Cn1nc(C2CC2)cc1NC(=O)C1(C)CCN1C(=O)CC(c1ccccc1)c1ccccc1 (stereo unspecified) | -3.6 | -1.4
COCc1ccc(C(=O)N2CCCC(N3CCN(c4ccc(F)cc4)CC3)C2)o1 (stereo unspecified) | -1.0 | -6.8
CCOc1ccc(C(=O)Oc2cc(N)n(S(C)(=O)=O)n2)cc1 | 1.5 | -0.2
Cc1cc(C)n(-c2ccc(Cc3nc4ccsc4c(=O)[nH]3)cc2)n1 | 10.4 | 8.8
COc1ccc(-c2nc3ccc(C)cn3c2NC(=O)c2ccccc2)cc1OC | -3.2 | 3.3
CCOc1ccccc1N1CCN(C(=O)c2cc(-c3ccccc3F)nn2-c2ccccc2Cl)CC1 | -5.8 | 1.3
Cc1nc2cc(OCc3cc(C(=O)N4CCN(C)C(c5ccccc5)C4)no3)ccc2s1 (stereo unspecified) | 4.8 | 8.3
CCOC(=O)C1=C(C)N=c2s/c(=C/c3ccccc3)c(=O)n2C1c1ccccc1 (stereo unspecified) | 11.2 | -1.8
COc1ccc2nc(N(Cc3ccccc3)C(=O)c3ccc(S(=O)(=O)N(C)C)cc3)sc2c1 | -5.4 | -9.2
CC(C)c1nsc(N2CC3CCCC3C2)n1 (stereo unspecified) | 9.3 | 6.3
CN(C)CCNC(=O)CC1(C)N=C(c2ccc(-c3ccccc3)cc2)N(C)O1 (stereo unspecified) | 4.9 | 1.1
CC[C@H](O)[C@@H]1N(C(C)=O)C2CCC1(O)CC2 | -0.4 | 9.0
Nc1nc(NCc2ccccc2)nc(-c2cccc(F)c2F)n1 | 3.3 | 0.7
CCC1SC(c2cc(OC)ccc2OC)N(CCN(C)C(=O)Nc2ccccc2OC)C1=O (stereo unspecified) | 11.4 | 11.6
Cc1nnc(SCC(=O)Nc2sccc2C(N)=O)[nH]c1=O | 7.2 | 1.4
O=C1c2ccccc2C(=O)N1CSc1ccccc1 | 3.4 | 4.5
COc1cccc(CCC2CCCN(S(=O)(=O)c3cccnc3)C2)c1 (stereo unspecified) | 16.5 | 7.8
Cc1cc(C)c(NC(=O)CN(C)Cc2ccno2)c(C)c1 | -4.7 | -6.3
NC(=O)CCCn1cc(N)cn1 | -0.5 | -0.3
Cc1ccsc1CN(Cc1ccc2c(c1)OCO2)C(=O)CN(C1CCCCC1)S(=O)(=O)c1ccc(Cl)cc1 | 8.1 | 3.2
CCCCc1ncc(-c2nccn2CCc2ccccn2)[nH]1 | 1.6 | 0.9
CCCCc1nc(N2CCN(C(=O)c3cccc(Br)c3)CC2)c2c(-c3ccc4ccccc4c3)noc2n1 | 14.9 | 4.6
O=C(Nn1ccc2c(nnc3c(-c4ccccc4)cnn32)c1=O)c1ccncc1 | 1.1 | 2.2
CCOc1ccc(S(=O)(=O)N2CCN(C(=O)c3ccc4c(c3)OCCO4)CC2)cc1OCC | 2.9 | 7.9
Cc1ccc(-n2nnnc2N(C)CC2CC2)cc1 | -5.6 | -3.9
COCCN(Cc1c(-c2cccc(C)c2)noc1N1CCCC1)C(=O)c1cccs1 | 0.7 | -0.7
COc1ccccc1N=c1c([N+](=O)[O-])nn(-c2cccc(C)c2)n1O | -6.1 | -12.4
CCc1nc2ccc(C(=O)N3CCN(C)CC3)cn2c1N(C)C(=O)COc1ccccc1 | -3.0 | -7.5
COc1ccccc1OCC1CN(C(=O)C(Cc2ccccc2F)NC(C)=O)CCO1 (stereo unspecified) | 4.3 | 23.1
CCNc1ccnc(N2CCC3(CCCN(C)C3=O)C2)n1 (stereo unspecified) | -3.5 | -4.3
CCc1nc(NC(=O)NCCc2ccccn2)nn1C | 2.3 | 0.5
C=C(C)CN1C(=O)NC(CC)(C2CCN(C(=O)c3ccc(N4CCCCC4)cc3)CC2)C1=O (stereo unspecified) | 20.0 | 6.1
COCC(=O)N1CCN(C(=O)c2cc(-c3ccc(Cl)cc3)n(-c3cccc(F)c3)c2C)CC1 | -10.2 | -11.4
O=C(CCc1ccc(-c2ccccc2)o1)NC1=NC(=O)c2ccccc21 | 5.3 | 10.4
Nc1ccc(SCc2ccccc2)cn1 | -4.3 | 237.9
COc1ccc(OCC(O)CN(CCC(C)C)Cc2cccn2Cc2ccc(F)cc2)cc1 (stereo unspecified) | -6.1 | 0.8
Cc1cc(CN2CCCC2)ccc1Oc1ccc(C(=O)N2CCCCC2)cn1 | 4.6 | -3.9
CC(=O)Nc1ccc(CN2CCC2(C)C(=O)Nc2ccc(Cl)c(Cl)c2)cc1 (stereo unspecified) | 6.7 | 0.6
CCn1nnc2c(=O)n(Cc3cccc4ccccc34)cnc21 | 1.2 | 11.0
Cc1ccc(-n2c(SCc3ccc(F)cc3)nnc2C(C)NS(=O)(=O)c2cc(Cl)ccc2Cl)cc1 (stereo unspecified) | -1.7 | -0.3
CC(C)CC(=O)NNC(=O)c1cnn(-c2ccccc2)c1C(C)C | 11.3 | 10.1
O=C1CCC2(CCCO2)CCN1Cc1nccn1Cc1ccccc1 (stereo unspecified) | 21.5 | 13.5
N#Cc1c(Cl)nsc1NC1CC(=O)N(Cc2ccccc2)C1 (stereo unspecified) | 9.6 | 3.3
CCCCCCCCC(=O)N(CC(=O)N1CCc2sccc2C1c1ccc(Cl)cc1Cl)CC1CCCO1 (stereo unspecified) | 16.8 | 16.5
COc1ccccc1N1CC(c2nc3ccccc3n2Cc2ccccc2F)CC1=O (stereo unspecified) | 2.7 | -3.4
Cc1ccc(Cl)c2sc(N3CCN(C(=O)C4CCCN4S(C)(=O)=O)CC3)nc12 (stereo unspecified) | -0.4 | -1.6
O=S(=O)(c1ccc2c(c1)CCCC2)N1CCCC1c1cccnc1 (stereo unspecified) | 2.1 | 0.4
C=CCCC(O)CN(CCN1CCOCC1)Cc1ccc(C)s1 (stereo unspecified) | -8.7 | -8.2
COc1cccc(OCC(=O)NCCN2CCn3cc(OC)c(=O)cc3C2=O)c1 | -0.9 | -0.3
CCCCN(C)C(=O)c1cc(-c2ccc(C)s2)[nH]n1 | 5.5 | 3.6
C=CCN(CC(=O)N1CCc2sccc2C1c1ccccc1C)C(=O)c1ccc(F)cc1 (stereo unspecified) | 1.7 | 7.6
CN(C(=O)c1ccc(Br)o1)C1CCS(=O)(=O)C1 (stereo unspecified) | -6.5 | -12.5
Cc1cnc(CN(C)C(=O)c2cc(COc3ccccc3F)[nH]n2)[nH]1 | 13.4 | 6.1
CCOC(=O)N1CCN(S(=O)(=O)c2cccs2)CC1 | 1.4 | 5.6
COc1ccc(Cl)cc1-n1c(C)cc(C(=O)OC(C)C(N)=O)c1C (stereo unspecified) | 9.5 | 1.8

Next part
Values run as follows: NPYLR7 ag, NPYLR7 ag max-min
CC1=CC[C@@H]2CN(Cc3ccccc3OCC(=O)N(C)C)C[C@@H]2C1
    6.3, 4.2
CNC(=S)NNc1ccccc1[N+](=O)[O-]
    -5.4, -3.8
O=C(Cn1ccc(=O)c2ccccc21)Nc1ccc(N2CCCC2)c(F)c1
    -2.3, -4.4
COc1ccccc1CNC(=O)N1CCC2(CC1)OCCO2
    0.8, -0.2
COc1cccc(C(=O)Nc2c3c(nn2C(C)(C)C)CSC3)c1
    -2.2, -5.7
CCCC(=O)Nc1ccc(CNCc2ccc(Br)s2)cc1
    0.6, -1.0
O=S(=O)(/C=C/c1ccccc1)NCCOc1ccc2nnc(-c3ccccc3)n2n1
    -7.6, -6.0
Cc1cc(Cl)ccc1C(=O)C1CCCN(C(=O)c2ccsc2)C1 (stereo unspecified)
    -3.8, -6.4
CCOc1ccc(-c2nnc3ccc(SCc4ccccn4)nn23)cc1
    11.2, 10.2
O=C(Cn1nc2ccc(SC3CCCCC3)nn2c1=O)Nc1ccccc1
    -0.2, -1.8
O=C(NCCNc1cc(-n2cccn2)ncn1)C(c1ccccc1)c1ccccc1
    -9.5, -14.2
N#Cc1cc2c(nc1SCC(=O)c1cccc(Cl)c1)CCCC2
    -8.6, -12.4
COc1c(C)cc(-c2ccc(C(C)=O)cn2)cc1C
    -5.0, -8.4
CCC(C)N(Cc1c(-c2ccccc2)noc1N(C)C(C)C)C(=O)c1ccccc1C (stereo unspecified)
    5.5, 2.8
Cc1ccc(C2NCCCn3cccc32)cc1C (stereo unspecified)
    7.8, 15.5
O=C(CCN1CCN(c2nsc3ccccc23)CC1)Nc1cccnc1
    -4.0, -7.2
CCc1nc2n(n1)C(=O)C(C(c1cccs1)N1CC(C)CC(C)C1)S2 (stereo unspecified)
    -6.5, -12.0
COc1cccc(C(=O)N2CCn3cncc3C2)c1C
    10.6, 8.4
Cc1ccccc1-c1ccc(N2CCC(C(=O)Nc3ccccn3)CC2)nn1
    -9.0, -11.0
CCCc1cc(C(=O)OCC)c(NC(C)=O)s1
    -3.8, -4.7
COc1ncccc1C(=O)Nc1ccccc1S(C)(=O)=O
    14.3, 9.9
CCOC(=O)N1CCN(c2nc(Nc3ccc(Cl)cc3)c3nccnc3n2)CC1
    -1.4, 7.5
COc1ccc(CN2CCN(CC#Cc3ccccc3)CC2CCO)c(C)c1C (stereo unspecified)
    9.3, 6.0
Cc1nn(-c2ccccc2)c(C)c1S(=O)(=O)N1CC[C@H](CO)[C@H](O)C1
    1.3, -2.9
Cc1noc(-c2cccc(C(F)(F)F)c2)c1C(=O)N[C@H]1CCC[C@@H]1OCc1ccccc1
    5.6, 11.2
COC(=O)C1=C(C)NC(=S)NC1c1cccc(C)c1 (stereo unspecified)
    0.9, 1.8
CC(C)(Cc1ccc(F)cc1)NC(=O)CC1C(=O)NCCN1Cc1ccoc1 (stereo unspecified)
    0.4, -2.7
CC(CCc1ccccc1)NC(=O)c1cc(Cl)ccn1 (stereo unspecified)
    3.5, 2.8
O=C(Cn1nc2c(c1NC(=O)c1cc3ccccc3o1)CSC2)NCc1ccco1
    -8.1, -1.9
O=c1[nH]c(COc2cc(F)ccc2F)nc2ccccc12
    -16.7, -17.0

Brought forward from above: 4 compounds, then new ones.
Values run as follows: NPYLR7 ag, NPYLR7 ag max-min
CC(C)(Cc1ccc(F)cc1)NC(=O)CC1C(=O)NCCN1Cc1ccoc1 (stereo unspecified)
    0.4, -2.7
CC(CCc1ccccc1)NC(=O)c1cc(Cl)ccn1 (stereo unspecified)
    3.5, 2.8
O=C(Cn1nc2c(c1NC(=O)c1cc3ccccc3o1)CSC2)NCc1ccco1
    -8.1, -1.9
O=c1[nH]c(COc2cc(F)ccc2F)nc2ccccc12
    -16.7, -17.0
Cc1csc(=O)n1CCC(=O)Nc1ccc(-c2ccccc2)cn1
    -0.5, -0.5
COc1ccc(NC(=O)CSc2nnc(CNC(=O)c3ccco3)n2-c2cc(C)ccc2C)cc1
    9.1, 6.4
CCn1c(SCC(=O)NCC2CCCO2)nnc1-c1ccncc1 (stereo unspecified)
    5.8, 5.1
COCCNC(=O)C1CCCN(C2CCN(C(=O)c3cccs3)CC2)C1 (stereo unspecified)
    8.7, 7.4
COc1ccc(N(C)C(=O)CNC(=O)C23CC4CC(CC(C4)C2)C3)cn1
    8.8, 6.1
CCc1[nH]c2ccc(CNC(=O)CCC(F)(F)F)cc2c1C
    3.3, 3.2
CC(=O)Nc1nnc(SCC(=O)c2ccccc2)s1
    -6.9, -8.6
COc1ccc(C2(C#N)CCC(C(=O)O)CC2)cc1OC1CCCC1 (stereo unspecified)
    14.6, 14.2
CCOC(=O)N1CCN(C(=O)c2cc(-c3ccc(Cl)cc3)n(-c3ccc(F)cc3)c2C)CC1
    13.0, 21.9
CCn1ccc(C(=O)N=c2sc3cc(Cl)ccc3n2CCOC)n1
    -2.4, -5.6
Cc1ccc(C2=NN(C(=O)C(O)c3ccccc3)C(O)(C(F)(F)C(F)(F)C(F)(F)F)C2)cc1 (stereo unspecified)
    13.0, 15.4
CCCS(=O)(=O)Nc1ccc(F)c(C(=O)c2c[nH]c3ncc(Cl)cc23)c1F
    -6.9, -10.3
COC(=O)c1ccc2oc(=O)n(C3CCN(C(=O)c4ccc5c(c4)OCO5)CC3)c2c1
    13.6, 15.8
CC(CC(=O)N1CCN(c2ccc(NC(=O)NCc3ccccc3)cc2)CC1)CC(C)(C)C (stereo unspecified)
    26.7, 16.4
COc1ccc(N(C2C=CS(=O)(=O)C2)S(=O)(=O)c2ccc(Cl)cc2)cc1 (stereo unspecified)
    6.6, 0.7

Reprinted at random: 2 compounds from above
Values run as follows: NPYLR7 ag, NPYLR7 ag max-min
COc1ccc(C2(C#N)CCC(C(=O)O)CC2)cc1OC1CCCC1 (stereo unspecified)
    14.6, 14.2
CC(=O)Nc1nnc(SCC(=O)c2ccccc2)s1
    -6.9, -8.6

Additional results:
Values run as follows: NPYLR7 ag, NPYLR7 ag max-min
COc1cccc(-c2cc(C(=O)N3CCOCC3)c(C)n2-c2ccccc2)c1
    -1.5, 0.3
CC(=O)c1ccc(NC(=O)CSc2nnc3ccccn23)cc1
    -2.6, 18.5
CN(C)c1ccc(-c2nn3c(C4CCCCC4)nnc3s2)cc1
    -0.7, -0.3
CCN(CC)c1ccc2cc(-c3nnc(Nc4cc(C(F)(F)F)ccc4Cl)s3)c(=O)oc2c1
    -6.0, -15.4

Source: PubChem BioAssay

Some of the compounds tested (hit frequency here may not be typical).
